Screening data deposited in PubChem BioAssay by Broad Institute.
FGF22 binding: FGF22 (human) thermal shift binding; 340,000 tested, 1.5% active; AID 651658; Q9HCT0; recombinant FGF22 thermal shift, SYPRO orange fluorescence; percent of sucrose octasulfate shift, DMSO zero; calls only at 9.99 µM;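 active = melting point raised past a set limit in the mean and every replicate; inconclusive = no clear call; three in four hits are not shown here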
Target sequence (Q9HCT0 whole entry, looked up): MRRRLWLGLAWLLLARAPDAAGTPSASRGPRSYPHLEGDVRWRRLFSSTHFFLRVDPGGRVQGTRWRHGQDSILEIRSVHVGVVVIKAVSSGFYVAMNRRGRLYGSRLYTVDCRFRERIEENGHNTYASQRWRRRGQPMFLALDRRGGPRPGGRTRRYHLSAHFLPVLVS
Ecoli rRNA inh: inhibitors of bacterial rRNA selective over humanized ribosomes. E. coli WT GFP vs humanized-ribosome RFP mutants, fluorescence, 24 h; active compounds read low; DMSO median 0, no signal -100. GFP signal change (wild-type ribosome), % (no concentration beside the values). 350,000 tested, 1.6% active. AID 720706;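 active = significant combined selectivity score with lowered wild-type GFP, culture density cut under 30%, mutant RFP and density less affected; inactive = any of these conditions unmet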; note: one replicate is shown; some compounds called inactive have numbers as strong as hits
AF4-AF9 inh: MLL-AF4/AF9 protein interaction inhibition; P42568; AlphaScreen, biotin-AF4 peptide binding to FLAG-AF9; inhibition, % at 10 µM; 350,000 tested, 0.47% active;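 active = every replicate reaching a set inhibition limit, whatever the replicate mean, cut at about 25% in these data; inconclusive = mean inhibition reaches that limit but some replicates miss it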;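 note: 0% = plate neutral control median and 100% = total signal loss; the record names both 10 and 1 µM as test concentration; the first replicate is given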
Target sequence (P42568 whole entry, looked up): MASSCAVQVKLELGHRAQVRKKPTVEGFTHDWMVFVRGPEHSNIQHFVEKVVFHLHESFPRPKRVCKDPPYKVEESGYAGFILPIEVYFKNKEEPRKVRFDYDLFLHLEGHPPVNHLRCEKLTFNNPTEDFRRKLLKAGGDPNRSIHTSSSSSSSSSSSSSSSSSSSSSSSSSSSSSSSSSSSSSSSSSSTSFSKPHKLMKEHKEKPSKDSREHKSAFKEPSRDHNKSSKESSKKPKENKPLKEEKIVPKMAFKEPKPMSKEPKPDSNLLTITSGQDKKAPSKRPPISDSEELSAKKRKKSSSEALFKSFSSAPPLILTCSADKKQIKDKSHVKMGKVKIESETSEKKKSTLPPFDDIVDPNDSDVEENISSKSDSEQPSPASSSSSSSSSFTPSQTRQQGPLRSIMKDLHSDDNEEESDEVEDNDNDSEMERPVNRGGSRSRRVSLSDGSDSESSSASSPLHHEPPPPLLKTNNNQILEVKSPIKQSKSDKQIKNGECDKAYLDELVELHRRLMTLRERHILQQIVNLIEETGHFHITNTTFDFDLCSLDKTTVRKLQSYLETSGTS
Ecoli rRNA inh OD600: second read-out of Ecoli rRNA inh, no call of its own (marks repeat the call); OD600 change, %; measured here: OD600 growth;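 optical density of the mix in the first replicate; 0 = DMSO median and -100 = no signal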
Ecoli rRNA inh RFP: recorded beside Ecoli rRNA inh, whose call it bears; RFP signal change, %; measured here: RFP humanized mutant strains;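 first replicate; 0 = DMSO median and -100 = no signal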
An asterisk follows results filed as active; i = inactive; ? = inconclusive; & = joins results of further samples. These rows are one share of the data, so the mix of outcomes need not match the whole.

item	FGF22 binding	Ecoli rRNA inh	Ecoli rRNA inh OD600	Ecoli rRNA inh RFP	AF4-AF9 inh	SMILES
1	i	0.1	-4.9	-4.2	-1.6	CCS(=O)(=O)Nc1ccc2c(c1)C(=O)N(C)[C@H]1CC[C@H](CC(=O)N3CCCCC3)O[C@H]1CO2
2	i	-7.4	-50.5	16.6	-0.5	CC(C)NC(=O)N(C)C[C@@H]1Oc2cc(C#Cc3cccc(F)c3)ccc2S(=O)(=O)N([C@H](C)CO)C[C@@H]1C
3	i	-6.2	2.8	0.3	-2.3	COc1cc(F)ccc1-c1cc(C(=O)Nc2ccc(NC(C)=O)cc2)[nH]n1
4	i	-4.9	-6.3	10.9	1.8	COc1ccc(C2C3=C(COC3=O)Oc3cc4c(cc32)OCO4)cc1OC (stereo not given)
5	i	11.2	14.2	2.8	1.3	Cc1cncc(NCc2ccc3c(c2)OCO3)n1
6	i	0.9	-0.9	-1.6	-2.2	O=C(C[C@H]1CC[C@@H](NC(=O)Cc2ccccn2)[C@@H](CO)O1)NCCc1ccccc1
7	i	-37.5	-59.0	11.0	-9.6	CCCCNc1c(-c2ccc(OC)c(SC(C)CC)c2)nc2cnccn12 (stereo not given)
8	i	0.6	1.7	-3.8	-4.4	COc1ccc(NC(=O)N(C)C[C@@H]2Oc3ncc(C#C[C@H](C)O)cc3C(=O)N([C@H](C)CO)C[C@@H]2C)cc1

Compound profiles, as listed above.
O=C(C[C@H]1CC[C@@H](NC(=O)Cc2ccccn2)[C@@H](CO)O1)NCCc1ccccc1 as listed: FGF22 binding = i; Ecoli rRNA inh = 0.9; Ecoli rRNA inh OD600 = -0.9; Ecoli rRNA inh RFP = -1.6; AF4-AF9 inh = -2.2
CCS(=O)(=O)Nc1ccc2c(c1)C(=O)N(C)[C@H]1CC[C@H](CC(=O)N3CCCCC3)O[C@H]1CO2 as listed: FGF22 binding = i; Ecoli rRNA inh = 0.1; Ecoli rRNA inh OD600 = -4.9; Ecoli rRNA inh RFP = -4.2; AF4-AF9 inh = -1.6

Next results follow.
item	FGF22 binding	Ecoli rRNA inh	Ecoli rRNA inh OD600	Ecoli rRNA inh RFP	AF4-AF9 inh	SMILES
9	i	-1.4	-10.3	4.0	11.0	Cc1ccc(-c2ccc3c(c2)O[C@@H](CN(C)CC2CC2)[C@@H](C)CN([C@@H](C)CO)S3(=O)=O)cc1
10	i	-3.8	-9.1	4.7	0.7	COc1ccc(NC(=O)N(C)C[C@H]2Oc3c(NC(=O)c4ccc(-c5nccs5)cc4)cccc3C(=O)N([C@@H](C)CO)C[C@H]2C)cc1
11	i	4.7	1.3	0.9	-0.3	O=C(C[C@@H]1C[C@H]2c3cc(NC(=O)C4CCOCC4)ccc3O[C@H]2[C@@H](CO)O1)NCc1ccc(Cl)cc1
12	i	1.9	3.2	0.8	2.9	Cc1noc(C)c1S(=O)(=O)Nc1ccc2c(c1)C(=O)N([C@H](C)CO)C[C@H](C)[C@H](CN(C)C(=O)Nc1ccc(F)cc1)OCCCC[C@@H](C)O2
13	i	0.2	2.0	1.6	-10.7	COc1ccccc1C(=O)Nc1ccc2c(c1)OC[C@@H](C)N(C(C)=O)C[C@@H](C)[C@@H](OC)CN(C)C2=O
14	i	3.2	1.1	0.8	2.2	Cc1ccc(S(=O)(=O)Nc2ccc3c(c2)C(=O)N([C@H](C)CO)C[C@@H](C)[C@@H](CN(C)Cc2ccc(C(F)(F)F)cc2)OCCCC[C@@H](C)O3)cc1
15	i	-9.2	-11.0	-0.5	-0.8	CC(C)(C)OC(=O)N1CCCC(C(=O)Nc2ccc(C(=O)NCc3ccccc3)cc2)C1 (stereo not given)
16	i	-0.3	-4.4	-0.4	1.8	CO[C@H]1CN(C)C(=O)c2ccc(NC(=O)Nc3ccccc3F)cc2OC[C@@H](C)N(C(C)=O)C[C@@H]1C
17	i	7.4	-0.8	-6.3	-3.3	COCCN(CCOC)Cc1cc(=O)oc2cc(OC)ccc12
18	i	-4.7	-13.8	-1.0	6.6	O=C(C=Cc1cccs1)c1cccs1
19	i	-2.4	5.8	-2.8	-0.8	C[C@@H]1CN([C@H](C)CO)C(=O)c2cc(-c3ccccc3F)cnc2O[C@H]1CN(C)C(=O)NC1CCCCC1
20	i	6.8	7.8	0.4	-2.9	COc1ccc(C(C)(C)C)cc1NC(=O)CCCN1C(=O)CN(C)C1=O
21	i	-1.4	0.0	0.8	0.5	CC(C)NC(=O)N[C@@H]1CC[C@@H](CCn2cc(-c3ccccc3)nn2)O[C@H]1CO
22	i	-40.4	-60.0	-3.8	-2.6	COc1ccc(NC(=O)N2CCCCN3[C@H](CO)[C@@H](c4ccc(-c5ccccc5F)cc4)[C@@H]3C2)cc1
23	i	-2.0	7.3	-1.9	1.2	COc1ccc(NC(=O)Nc2ccc3c(c2)[C@H]2C[C@@H](CC(=O)N[C@@H](C)c4ccccc4)O[C@H](CO)[C@H]2O3)cc1
24	i	11.4	9.0	-0.9	1.1	CCCN(C(=O)COC(=O)CNS(=O)(=O)c1ccc(NC(C)=O)cc1)C1CCS(=O)(=O)C1 (stereo not given)
25	i	3.2	2.5	2.8	0.7	O=C1C=CC(=O)N1c1ccccn1
26	i	5.5	3.5	1.1	-5.5	COc1ccc(NC(=O)N(C)C[C@H]2Oc3ccc(NS(=O)(=O)c4cn(C)cn4)cc3C(=O)N([C@@H](C)CO)C[C@H]2C)cc1
27	i	0.0	-1.9	-3.4	0.3	CC(C)CC#Cc1cnc2c(c1)C(=O)N([C@@H](C)CO)C[C@H](C)[C@@H](CN(C)C(=O)Cc1ccncc1)O2
28	i	1.1	10.0	8.1	4.1	CCC(CC)C(=O)N(C)c1c(C)nc2c(OCc3ccc(Cl)cc3Cl)cccn12
29	i	-10.7	-21.2	-1.0	-0.7	O=C(C[C@@H]1C=C[C@@H](NS(=O)(=O)c2ccc(F)cc2)[C@@H](CO)O1)NCc1ccc(Cl)c(Cl)c1
30	i	1.7	1.8	-3.5	-1.0	Cc1noc(C)c1S(=O)(=O)Nc1ccc2c(c1)C(=O)N([C@@H](C)CO)C[C@@H](C)[C@@H](CN(C)S(=O)(=O)c1cn(C)cn1)OCCCC[C@@H](C)O2
31	i	-0.2	4.0	-0.8	-1.5	COCC(=O)N1C[C@H](C)[C@@H](OC)CN(C)C(=O)c2ccc(NC(=O)c3ccc(F)cc3)cc2OC[C@H]1C
32	i	-1.0	-2.1	0.5	-1.4	Cc1noc(C)c1NC(=O)N[C@H]1CC[C@H](CC(=O)N2CCN(C)CC2)O[C@@H]1CO
33	i	-1.5	-11.9	3.6	0.6	COc1ccc(-c2ccc3c(c2)[C@@H]2[C@@H](CCN2C(=O)C2CC2)[C@@H](CO)N3C)cc1
34	i	2.2	2.9	-0.8	1.5	C[C@H](CO)N1C[C@H](C)[C@@H](CN(C)Cc2ccc(Oc3ccccc3)cc2)Oc2ccc(NC(=O)Nc3ccc(C(F)(F)F)cc3)cc2C1=O
35	i	11.2	9.6	0.5	4.2	Cc1occc1C(=O)N(C)CC1CCCN(CCc2ccc(Cl)cc2)C1 (stereo not given)
36	i	8.0	8.2	4.3	-1.9	COc1ccc(C=NNC(=O)CCCC(=O)NN=Cc2ccc(OC)c(OC)c2)cc1OC
37	i	1.6	2.5	0.1	-0.2	C[C@@H]1CN([C@@H](C)CO)C(=O)c2cc(NS(=O)(=O)c3cn(C)cn3)ccc2O[C@@H](C)CCCCO[C@H]1CN(C)C(=O)C1CCCCC1
38	i	1.6	2.7	4.0	1.7	C[C@@H]1CN([C@@H](C)CO)C(=O)Cc2cc(NC(=O)Nc3ccc(C(F)(F)F)cc3)ccc2O[C@@H]1CN(C)C
39	i	-1.0	1.5	0.6	-1.9	COC(=O)C[C@H]1C=C[C@H](NS(=O)(=O)c2ccc(OC)cc2)[C@H](CO)O1
40	i	1.7	-4.9	0.7	-6.5	C[C@@H]1CCCCO[C@H](CN(C)S(=O)(=O)c2ccccc2)[C@@H](C)CN([C@@H](C)CO)C(=O)c2cc(NS(=O)(=O)c3cccs3)ccc2O1
41	i	0.5	5.3	6.4	-4.1	C[C@H]1CCCCO[C@@H](CN(C)Cc2ccc(C(F)(F)F)cc2)[C@@H](C)CN([C@@H](C)CO)C(=O)c2cc(NS(=O)(=O)c3ccc(Cl)cc3)ccc2O1
42	i	-8.0	-5.2	4.7	1.9	C[C@@H]1CN([C@H](C)CO)S(=O)(=O)c2ccc(-c3ccc(C#N)cc3)cc2O[C@H]1CN(C)Cc1cccc(F)c1
43	i	2.6	1.3	-2.6	-4.1	Cc1ccc([C@H]2C[C@@H](O)[C@H](n3cc(C4CC4)nn3)CN2C(=O)c2cccs2)cc1
44	i	-0.2	-0.5	-1.6	-6.4	C[C@H](O)C#Cc1ccc([C@H]2[C@@H](CO)N3CCCCN(C(=O)c4ccc(F)cc4)C[C@@H]23)cc1
45	i	-5.6	-2.2	-0.1	-1.8	COc1ccc(S(=O)(=O)N2CC[C@@H]3[C@@H](CO)Nc4ccc(C#Cc5cccnc5)cc4[C@@H]32)cc1
46	i	-1.8	-8.0	1.1	?	COc1cccc(S(=O)(=O)Nc2ccc3c(c2)[C@@H]2C[C@@H](CC(=O)NCc4ccccc4F)O[C@@H](CO)[C@@H]2O3)c1
47	i	2.0	9.5	-0.5	-4.9	C[C@@H]1CN([C@@H](C)CO)C(=O)c2cccc(NC(=O)NC3CCCCC3)c2O[C@@H]1CN(C)C
48	i	-4.4	-2.4	-2.5	-11.6	C[C@H](CO)N1C[C@H](C)[C@H](CN(C)S(=O)(=O)c2ccccc2)OCCCC[C@H](C)Oc2ccc(NS(=O)(=O)c3ccc(F)cc3)cc2C1=O
49	i	-56.6	-76.2	-13.6	23.9	O=C(NC1CCCC1)N1CCCCN2[C@H](CO)[C@H](c3ccc(/C=C/c4ccccc4)cc3)[C@H]2C1
50	i	-9.0	-40.2	15.1	-17.1	O=C(C1CCCCC1)N1CC2(C1)[C@H](c1ccccc1)[C@@H](CO)N2Cc1ccccc1F
51	i	-41.5	-72.2	-5.3	-42.8	CC(C)(C)NC(=O)C(c1ccncc1)n1c(=O)c(-c2cc3ccccc3[nH]2)nc2ccccc21 (stereo not given)
52	i	1.5	16.0	-2.1	4.9	COc1cccc(-c2ccc([C@H]3[C@@H](CO)N4CCCCN(Cc5cncnc5)C[C@H]34)cc2)c1
53	i	-28.0	-62.2	10.6	2.3	OC[C@H]1Nc2ccc(-c3ccccc3)cc2[C@@H]2[C@H]1CCN2Cc1ccccc1F
54	i	2.0&-1.0	-3.4&-0.4	3.5&-1.4	-2.4&-1.1&4.6	C[C@@H]1CN([C@@H](C)CO)C(=O)CCCn2nncc2CO[C@H]1CN(C)C(=O)NC1CCCCC1
55	i	-6.8	-18.9	1.2	-0.5	COCC#Cc1ccc2c(c1)O[C@@H](CN(C)Cc1cccnc1)[C@H](C)CN([C@@H](C)CO)S2(=O)=O
56	i	5.3	3.3	-6.3	-2.4	CCc1nc2ccc(C(=O)N(C)Cc3ccco3)cn2c1N(CC)C(=O)NCCc1ccccc1
57	i	1.7	3.4	0.2	-3.5	CCNC(=O)[C@H]1[C@H](CO)[C@H]2Cn3c(ccc(/C=C/c4ccccc4)c3=O)[C@@H]1N2
58	i	21.6	6.7	0.5	-5.4	CC[C@]12c3[nH]c4cc(CCC(=O)N(C)C)ccc4c3CCN1C(=O)[C@@H](CC(=O)NCCCN(C)C)C[C@@H]2C(=O)N1CCN(C(=O)C2CC2)CC1
59	i	-1.3	-9.6	3.4	3.2	COc1ccc2c3c([nH]c2c1)[C@@H](CO)N(Cc1ccccc1F)CC31CCN(C(=O)C2CCC2)CC1
60	i	3.5	4.7	-2.3	-1.2	CC1=C(C(=O)N(C(C)C)C(C)C)CC(CC(=O)NC2CC2)C(=O)N1CCCN1CCCC1=O (stereo not given)
61	i	-3.2&0.0	9.9&9.8	1.8&-0.1	-2.4&-1.2&-0.6	C[C@H]1CN([C@@H](C)CO)C(=O)CCCn2nncc2CO[C@H]1CN(C)C(=O)c1ccc2ccn(C)c2c1
62	i	-6.7	0.8	2.3	-2.0	CN(C(=O)c1cccc(NC(=O)Cc2ccc(NC(=O)C3CCCN(C(=O)C4CCCCC4)C3)cc2)c1)C1CCCC1 (stereo not given)
63	i	2.0	-13.6	3.0	-0.7	O=C(OCc1cn([C@H]2C[C@H](c3ccccc3)N(Cc3cccs3)C[C@@H]2O)nn1)c1ccccc1
64	i	2.0	10.9	4.0	2.8	COc1ccc(-c2ccc3c(c2)[C@@H]2[C@@H](CCN2S(=O)(=O)c2ccccc2C)[C@H](CO)N3)cc1
